# AmpC nodet inh – blocks E. coli AmpC beta-lactamase in absence of detergent; Potency, µM (top dose mostly 28.7 µM), for inactives: at the top dose activity change, negative = inhibition; P00811; AID 585; 71,000 tested, 1.8% active; AmpC nitrocefin hydrolysis, absorbance 480 nm, no detergent; potencies from a single point are estimates; active = falling curve, for most hits resting on a single point; inconclusive = weak or doubtful change; inactive = flat or rising curve; note: % of control where 0% means no effect; about half of the hits show no inhibition at the top dose; a quarter of the inactives give rising signals
# Target sequence (P00811 whole entry, looked up): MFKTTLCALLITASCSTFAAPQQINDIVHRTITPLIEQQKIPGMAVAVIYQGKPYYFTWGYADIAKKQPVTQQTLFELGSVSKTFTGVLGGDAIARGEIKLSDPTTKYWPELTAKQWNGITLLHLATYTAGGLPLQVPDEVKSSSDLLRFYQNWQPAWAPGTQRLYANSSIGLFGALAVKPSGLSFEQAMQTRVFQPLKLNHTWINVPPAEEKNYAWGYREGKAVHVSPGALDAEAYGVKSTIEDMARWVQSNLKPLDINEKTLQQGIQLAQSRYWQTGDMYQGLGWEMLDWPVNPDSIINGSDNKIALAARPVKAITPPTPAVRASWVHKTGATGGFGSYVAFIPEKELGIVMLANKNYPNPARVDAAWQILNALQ
#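 Enzyme, pH 7.0 phosphate. Compound titrations were pre-incubated with AmpC for 15 min at room temperature before nitrocefin (stock 800 uM) addition; product formation was recorded at 480 nm every 20 s for 4 min.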
# Active calls of the source: *; u = inconclusive; & = joins results of further samples; [ ] = dose if it differs, or a comment. Potency is the fitted concentration of half-maximal effect. This is a subset. The share of hits here may be higher or lower than overall.
SMILES,AmpC nodet inh
Cc1nc2nc(COc3ccccc3)nn2c(C)c1Cl,14%
Cc1ccc(-c2nn3c(C)nnc3s2)cc1NC(=O)c1ccc(Br)o1,48%
COCCn1c(-c2ccc(OC)cc2)cnc1SCC(=O)Nc1cc(C)on1,17%
COC(=O)C1C(c2ccccc2)C(C(=O)N2CCN(C)CC2)C1c1ccccc1 (stereo not drawn),29%
CCN1CCN(CCNC(=O)c2ccc(CS(=O)(=O)c3c(Cl)cccc3Cl)o2)CC1,24%
COc1ccc(-c2noc(COc3ccccc3OC)n2)cc1OC,146%
COc1ccc(CNC(=O)C(c2ccco2)N(Cc2cccs2)C(=O)Cc2cccs2)cc1 (stereo not drawn),-15%
C=CCN1C(=O)C2C(C(=O)NC)C3(C)C=CC2(O3)C1C(=O)NCc1ccc(OC)cc1 (stereo not drawn),4%
O=C1C2=C(SCCS2)C(=O)N1c1ccccc1,-10%
Nc1cc(OC(=O)c2ccco2)nn1S(=O)(=O)c1ccc(F)cc1,-8%
CCS(=O)(=O)Nc1ccc(-c2nnc(SCC(=O)OC)o2)cc1,-6%
COc1cccc(C2CC(=O)NC3=C2C(=O)CCC3)c1 (stereo not drawn),-4%
COc1ccc(S(=O)(=O)NCC(c2cccnc2)N2CCN(c3ccccc3OC)CC2)cc1C (stereo not drawn),104%
Cc1cc(CN2C(=O)c3ccccc3C2=O)on1,13%
Cc1onc(-c2c(F)cccc2Cl)c1C(=O)NCc1ccccn1,-9%
CCn1nc(C(=O)OCC(=O)N2c3ccccc3CC2C)c2ccccc2c1=O (stereo not drawn),78%
CCC/C(O)=C1\C(=O)CC(C)(C)CC1=Nc1ccc(OC)cc1OC,97%
O=C1c2ccccc2C(=O)N1n1c(=O)[nH]c2ccccc2c1=O,0%
Cn1c(SCc2ccccc2F)nc2cccnc21,18%
COc1cccc(NC(=O)C2CC(=O)N(C)C(=Nc3cccc(F)c3)S2)c1 (stereo not drawn),54%
CCOC(=O)c1ccc(NCn2c(=O)oc3ccccc32)cc1,2%
Cc1nc2cnc(N3CCNCC3)nc2n(CCc2ccccc2)c1=O,30%
Cc1onc(-c2ccccc2Cl)c1C(=O)NCCn1ccc2ccccc21,37%
C=CCOc1cccc(C2C(C(=O)c3ccco3)=C(O)C(=O)N2CCN2CCOCC2)c1 (stereo not drawn),5%
O=C(c1ccco1)N1CCN(c2cc(=O)n(C3CCCCC3)c(=O)[nH]2)CC1,5%
SMILES,AmpC nodet inh
CN1CCN(C(=O)c2ccc(-c3nn(C)c(=O)c4ccccc34)cc2)CC1,-16%
O=C(c1cccc(S(=O)(=O)N2CCCCC2)c1)N1CCCCC1,4%
CCOC(=O)c1c(NC(=O)CSc2nnc(-c3ccccc3C)n2C)sc(C(C)=O)c1C,89%
CCc1ccc(C(=O)CSc2n[nH]c(C)n2)cc1,3%
Cn1c(N2CCCCC2)nc2c1c(=O)[nH]c(=O)n2C,-5%
C=CCSc1nnc(CSc2nc3sc4c(c3c(=O)[nH]2)CCCC4)n1-c1ccccc1,61%
CCCc1nc2ccccc2c(=O)n1/N=C/c1ccccc1O,15%
C[C@@H]1C[C@H](OC(=O)[C@@H](O)c2ccccc2)CC(C)(C)N1C,-10%[12.8 µM]
CCC(C)(C)n1nnnc1C(c1ccncc1)N1CCN(c2cccc(OC)c2)CC1 (stereo not drawn),102%
Cc1cnc(CNc2ccnc(-c3cccc(NS(C)(=O)=O)c3)n2)cn1,-8%
CCOc1ccc(C2N(c3ccc(F)cc3)C(=O)C3CCCN32)cc1OC (stereo not drawn),37%
COc1ccccc1Oc1nc2c(c(=O)n(Cc3ccccc3F)c(=O)n2C)n1C,78%
O=C(c1ccccc1)N(Cc1ccc2c(c1)OCO2)Cc1nc2ccccc2c(=O)[nH]1,0%
COC(=O)c1ccc(NC(=O)CS(=O)(=O)Cc2ccccc2)cc1,45%
O=C(c1cnccn1)N1CCC2(CC1)CN(Cc1cc(C(F)(F)F)cc(C(F)(F)F)c1)C2,5%
O=c1c2ccccc2nc(-c2ccccc2)n1CCCN1CCOCC1,16%
Cn1c(=O)[nH]c2ncn(C)c2c1=O,-5%
Oc1ccccc1C(=S)N1CCCCC1,-12%
N[C@H](CCC(=O)N[C@H](CSN=O)C(=O)NCC(=O)O)C(=O)O,17%&4%
C=CCn1c(SCC(=O)NCC2CCCO2)nc2scc(-c3ccco3)c2c1=O (stereo not drawn),90%
CN1c2ccccc2N(C)C1c1ccc2c(c1)OCO2,8%
O=C(CSCCSCC(=O)c1ccco1)c1ccco1,-16%
C=CCn1c(SCC(=O)NCc2ccccc2)nnc1-c1ccccc1O,1%
O=c1cc(NCCO)c2ccccc2o1,-9%
COC(=O)N1CCC2(CC1)CN(C(c1ccccc1)c1ccccc1)C2,36%

# In the list so far, 8 have an aryl thioether with sulfur outside any ring.
SMILES,AmpC nodet inh
COCCn1c(-c2ccc(OC)cc2)cnc1SCC(=O)Nc1cc(C)on1,17%
CCS(=O)(=O)Nc1ccc(-c2nnc(SCC(=O)OC)o2)cc1,-6%
Cn1c(SCc2ccccc2F)nc2cccnc21,18%
CCOC(=O)c1c(NC(=O)CSc2nnc(-c3ccccc3C)n2C)sc(C(C)=O)c1C,89%
CCc1ccc(C(=O)CSc2n[nH]c(C)n2)cc1,3%
C=CCSc1nnc(CSc2nc3sc4c(c3c(=O)[nH]2)CCCC4)n1-c1ccccc1,61%
C=CCn1c(SCC(=O)NCC2CCCO2)nc2scc(-c3ccco3)c2c1=O (stereo not drawn),90%
C=CCn1c(SCC(=O)NCc2ccccc2)nnc1-c1ccccc1O,1%

# Next entries:
SMILES,AmpC nodet inh
COc1cccc(C2CC(C(F)(F)F)n3ncc(C(=O)NCc4ccco4)c3N2)c1 (stereo not drawn),25%
COc1cccc(-c2ccc3ncnc(N4CCNCC4)c3c2)c1,18%
c1cc(-c2sc(-c3ccncc3)c(-c3ccncc3)c2-c2ccncc2)ccn1,13%[5.75 µM]
CC(C(N)=O)N1C(=O)C2C3C=CC(C3)C2C1=O (stereo not drawn),10%
Cc1ccc(N2C(=O)CSC23C(=O)Nc2ccccc23)cc1 (stereo not drawn),-7%
CCOC(=O)c1sc2nc(C)cc(C)c2c1NC(=O)c1ccco1,8%
C=CCN1CCN(C(c2ccc(OC)c(OC)c2)c2nnnn2C(C)(C)C)CC1 (stereo not drawn),17%
Oc1c(C(c2ccccn2)N2CCOCC2)ccc2cccnc12 (stereo not drawn),9%
COc1ccc(NC(=O)c2cccs2)cc1O,-14%
CC1CCCC(C)N1C(=O)CSc1nnc(CSc2ncccn2)n1C (stereo not drawn),0%
CCCCn1c(SCC(=O)Nc2cc(C)on2)nc2c1c(=O)n(C)c(=O)n2C,0%
CCOc1ccc(C(=O)NCc2ccncc2)cc1,6%
CC(C)(OO)c1ccccc1,-10%
Cn1c(=O)c2c(nc(CN3CCc4ccccc4C3)n2Cc2ccc(F)cc2)n(C)c1=O,142%
CCCC(=O)c1ccc(N2CCN(C(=O)OCC)CC2)c(F)c1,42%
CCN1CCN(Cc2nc3c(c(=O)[nH]c(=O)n3C)n2Cc2ccccc2Cl)CC1,3%
O=C(Oc1cccc2cccnc12)c1ccc(Br)o1,4%
CCOC(=O)N1CCC(N2CCN(S(=O)(=O)c3ccc(NC(C)=O)cc3)CC2)CC1,101%
COCCn1c(=O)cnc2cnc(Oc3ccccc3)nc21,6%
CCOC(=O)c1nnn(-c2nonc2N)c1CNC(C)C,-12%
O=C(NCc1cccs1)C1CC(c2ccccc2O)=NO1 (stereo not drawn),-13%
CCCCN(CCCC)C(=O)CSc1nnc(-c2cc(OC)c(OC)c(OC)c2)o1,101%
N#CC(Br)Br,-10%
CCn1nc(C(=O)N2CCN(Cc3ccc4c(c3)OCO4)CC2)c2ccccc2c1=O,56%
Cn1c(=O)[nH]c(=O)c2c1nc(SCC(O)CO)n2Cc1ccccc1Cl (stereo not drawn),-4%
SMILES,AmpC nodet inh
CCOC(=O)N1CCN(S(=O)(=O)c2ccc(F)c(C(=O)Nc3cccc(C)c3C)c2)CC1,75%
O=C(CSc1nnc(-c2ccccc2)o1)N1CCOCC1,-5%
COc1ccc(OC)c(S(=O)(=O)N(C)CC(=O)Nc2ccccc2OC)c1,32%
CCCn1c(C)cc(C(=O)COc2ncnc3sccc23)c1C,7%
CCCN1C2CCCC1CC(NC(C)=O)C2 (stereo not drawn),7%
O=C(Nc1c2c(nn1-c1ccc(Cl)cc1)CS(=O)(=O)C2)c1ccc2c(c1)OCO2,-7%
O=C(Nc1ccccn1)NC1CCS(=O)(=O)C1 (stereo not drawn),1%
Cc1ccc(CNC(=O)c2nnn(-c3cccc(C)c3)c2N)cc1,10%
O=C(Nc1cccc(OC(=O)N2CCOCC2)c1)N1CCOCC1,-10%
CN(C)S(=O)(=O)c1ccc(C(=O)OCC(=O)NC(=O)NCc2ccccc2)cc1,-16%
CCOC(=O)c1c(N)nn(C(=O)C(C)(C)C)c1-c1ccccc1,5%
COc1ccc(OC)c(NC(=O)c2cc(S(=O)(=O)NCc3ccco3)ccc2F)c1,-19%
CCOc1ccccc1Oc1ccc(C(F)(F)F)cn1,-4%
S=c1[nH]nc(-c2ccc(Br)cc2)n1Cc1ccco1,-9%
O=C(O)CCc1n[nH]c(=S)[nH]c1=O,6%
Cc1nc2nc(C)n(-c3ccccc3)c2s1,-7%
COc1cc(C)nc(NCc2ccccc2)n1,-6%
C=CCn1c(C)c(C(C)=O)c(N2CCOCC2)nc1=S,-8%
Nc1nc(Nc2ccccc2)nc2ccccc12,u
Cc1n[nH]c(C)c1SCC(=O)Nc1ccc(F)cc1,-6%
CCN(C(=O)Cn1c(=O)oc2ccccc21)c1cccc(C(F)(F)F)c1,18%
CCOc1ccc2nc3sc(C(=O)N4CCN(C)CC4)c(N)c3cc2c1,95%
C(=N\c1nccs1)/Nc1nccs1,-11%
Cc1cc(C(=O)N[C@H](c2ccccc2)[C@@]2(C)C[C@@H]2[C@@H](C)C(=O)Nc2ccc3ccccc3c2)no1,28%
Cn1c(=O)c2c(nc(Oc3ccc4c(c3)OCO4)n2Cc2ccc(Cl)cc2)n(C)c1=O,30%

# Arranged by molecular weight (descending): three of the compounds above.
SMILES,AmpC nodet inh
CCOC(=O)N1CCN(S(=O)(=O)c2ccc(F)c(C(=O)Nc3cccc(C)c3C)c2)CC1,75%
Cc1ccc(CNC(=O)c2nnn(-c3cccc(C)c3)c2N)cc1,10%
O=C(Nc1ccccn1)NC1CCS(=O)(=O)C1 (stereo not drawn),1%

# Gathered by group, those above with a tert-butyl group
SMILES,AmpC nodet inh
C=CCN1CCN(C(c2ccc(OC)c(OC)c2)c2nnnn2C(C)(C)C)CC1 (stereo not drawn),17%
CCOC(=O)c1c(N)nn(C(=O)C(C)(C)C)c1-c1ccccc1,5%

# Further compounds
SMILES,AmpC nodet inh
Cc1ccc2oc(=O)c3cnn(CC(=O)NCCC(C)C)c3c2c1,-3%
CN(C)C(=O)c1ccc(-c2cncnc2NCCc2cnc[nH]2)cc1,u
CC(C)c1ccc(N2C(=O)[C@@H]3Cc4ccccc4CN3C2=O)cc1,-5%
CS(=O)(=O)N1CCC2(CC1)CN(C(=O)Nc1cccc(C#N)c1)C2,14%
CCn1nc(C(=O)Nc2ccc(S(=O)(=O)Nc3nccs3)cc2)c2ccccc2c1=O,25%
O=C(c1ccc2snnc2c1)N1CCN(c2ccccn2)CC1,4%
CCOC(=O)c1c(Nc2ccccc2N)cc(C)nc1C,-5%
Cc1ccc(-c2nc(CS(=O)CC(=O)N3CCN(c4ncccn4)CC3)c(C)o2)cc1 (stereo not drawn),95%
CCOC(=O)NC1C=CS(=O)(=O)C1 (stereo not drawn),11%
Cn1nc(N)c2c1N=P(N1CCOCC1)(N1CCOCC1)N=C2c1ccccc1,8%
CC(=O)N1CCC[C@@]2(CCN(Cc3nccs3)C2)C1,23%
CCOC(=O)c1cc(NC(=O)c2cc(C)on2)cc(C(=O)OCC)c1,2%
CCN(CC)C(=O)CN1C(=O)C2CC=C(Cl)CC2C1=O (stereo not drawn),-17%
O=C(NCc1ccccc1)[C@H]1C[C@@H]1[C@H](NP(=O)(c1ccccc1)c1ccccc1)c1ccccc1,51%
CCc1cc2c(NCc3ccco3)ncnc2s1,-2%
O=C(Nc1ccc(Cl)cc1)N1CCC(c2nc(-c3ccc(F)cc3)no2)CC1,-10%
CCOc1ccc2nc(NCCNS(=O)(=O)c3ccccc3)c(C#N)cc2c1,-10%
CC1(C)CC2CC(C)(CN2C(=O)COC(=O)c2ccc(Cl)cc2N)C1 (stereo not drawn),24%
Cc1ccc(C2NC(=O)c3c(sc4c3CCN(C)C4)N2)s1 (stereo not drawn),39%
Nn1c(SCC(=O)NC(=O)NC2CCCC2)nnc1-c1ccccc1F,8%
COc1ccc(C)cc1NC(=O)CN1CCN(S(=O)(=O)c2ccc(C(C)C)cc2)CC1,63%
Cc1cc(C)n(-c2nc3ccccc3c(=O)n2OC2CCCCC2)n1,42%
Nc1ccccc1C(=O)Nc1cccc(C(=O)O)c1,4%
COc1ccc(-c2noc(CN(C)S(=O)(=O)c3ccc(Cl)cc3)n2)cc1OC,104%
COc1ccccc1N1CCN(C(c2ccc(C)cc2)c2nnnn2C(C)C)CC1 (stereo not drawn),134%
O=c1c(-c2ccccc2)nc2cncnc2n1-c1ccccc1,38%

# As a short view, part of the list above:
SMILES,AmpC nodet inh
COc1ccc(-c2noc(CN(C)S(=O)(=O)c3ccc(Cl)cc3)n2)cc1OC,104%
COc1ccccc1N1CCN(C(c2ccc(C)cc2)c2nnnn2C(C)C)CC1 (stereo not drawn),134%
O=c1c(-c2ccccc2)nc2cncnc2n1-c1ccccc1,38%
